gsp antag: qHTS for Antagonists of gsp, the Etiologic Mutation Responsible for Fibrous Dysplasia/McCune-Albright Syndrome: qHTS; gsp-mutant cells, cAMP HTRF, 30 min; control for the full effect not named in the record; Potency, µM (series often up to 76.9 µM), inactives show top-dose activity change, negative = inhibition, most hits filed as inhibitors; actives 0.4% (n = 340,000); AID 624288, 2012; active = falling curve of any shape with a large fitted effect; inconclusive = falling curve, mostly with a smaller effect; inactive = flat or rising curve; cell line not stated here;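 further: intracellular cAMP measured with PDE inhibitor Ro 20-1724 present during compound exposure; potency means the concentration at half of the fitted maximal effect; on the % scale 0 is the no-effect control and ±100 the full control effect; nearly all actives have a fitted effect of over 65% in size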
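Cells, 2000/well, grown 16–24 h in DMEM 10% FBS with 0.5 mg/ml G418, then compounds plus […] (300 uM addition stock), 30 min at 37C. cAMP read by HTRF (cAMP-d2 and anti-cAMP antibody-K in lysis buffer) after 30 min RT.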
D2 ag: Beta-Arrestin HTS for Positive Allosteric Modulators of the Human D2 Dopamine Receptor: Agonists. D(2) dopamine receptor (Homo sapiens), P14416. DiscoveRx PathHunter D2 beta-arrestin, luminescence, 90 min; 100% = 57 uM dopamine signal. activation, % (no concentration beside the values). actives 0.084% (n = 360,000). AID 624465, 2012; in the data active = activation above about 40%; inconclusive = about 15% to 40%; inactive = below about 15%; further: compound concentration not given in the record; the text of the record calls up to 30% inactive
Target sequence (P14416 whole entry, looked up): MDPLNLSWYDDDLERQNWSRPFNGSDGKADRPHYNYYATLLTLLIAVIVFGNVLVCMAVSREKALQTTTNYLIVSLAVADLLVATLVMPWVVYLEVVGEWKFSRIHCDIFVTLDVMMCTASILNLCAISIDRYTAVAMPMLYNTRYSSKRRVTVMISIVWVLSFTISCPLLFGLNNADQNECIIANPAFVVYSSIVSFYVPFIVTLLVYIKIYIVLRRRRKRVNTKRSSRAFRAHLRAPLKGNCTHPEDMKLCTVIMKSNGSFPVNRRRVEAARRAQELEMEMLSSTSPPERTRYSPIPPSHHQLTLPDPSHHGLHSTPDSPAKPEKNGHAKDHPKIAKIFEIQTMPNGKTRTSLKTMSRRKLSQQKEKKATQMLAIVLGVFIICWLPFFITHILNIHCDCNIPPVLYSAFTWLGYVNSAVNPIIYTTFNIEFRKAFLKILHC
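Agonist mode: compounds alone added to overnight-plated D2 PathHunter cells for 90 min at 37 C, with 57 uM final dopamine (EC100) defining full response. Beta-arrestin recruitment detected by chemiluminescent reagent, read after 1 h at ambient temperature.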
gsp agonist: qHTS for Agonist of gsp, the Etiologic Mutation Responsible for Fibrous Dysplasia/McCune-Albright Syndrome: qHTS. gsp mutant cells, cAMP HTRF, 30 min; control for the full effect not named in the record. Potency, µM (doses to about 76.9 µM), for inactives: at the top dose activation (cAMP increase), hits mostly activators. actives 0.13% (n = 340,000). AID 624287, 2012; active = well fitted activation curve with a large enough effect; inconclusive = small, poorly fitted or top-dose-only effect, or another doubt; inactive = no such curve, though single readings can be large or run the other way; cell line not stated here;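 further: phosphodiesterase inhibitor Ro 20-1724 added with compounds to block cAMP breakdown; potency means the concentration at half of the fitted maximal effect; nearly all actives have a fitted effect of over 60% in size; about a fifth of the inactives were tested at one dose only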
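Cells in DMEM/10% FBS with G418 were pretreated with compounds in DMSO plus […] (300 uM stock) for 30 min at 37C. cAMP was measured by HTRF (cAMP-d2 plus anti-cAMP antibody-K) after 30 min at room temperature.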
Menin MLL FP FL: qHTS Assay for Inhibitors Targeting the Menin-MLL Interaction in MLL Related Leukemias: Competition With Fluorescein Labeled MLL-derived Peptide. AID 1766, 2009. FP activity change, % at 61.4 µM. Fluorescence polarization, fluorescein-MLL peptide displacement from menin. 290,000 tested, under 10 active; inconclusive = falling polarisation curve, or a change in total fluorescence; inactive = total fluorescence flat and polarisation flat or rising; no compound was filed as active; the % refers to the polarisation; negative = inhibition;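 further: % of control where 0% means no effect; inhibitors lower the polarisation; unlabelled MLL peptide was the positive control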
PINK1 modulator: A Quantitative High throughput Screen to Identify Chemical Modulators of PINK1 Expression | PINK1 immunofluorescence, high-content cytometry, 24 h | Potency, µM (titrated, usually from 76.6 µM), inactives show at the top dose activation (PINK1 increase), usual class: activators | actives 0.2% (n = 410,000) | AID 624263, 2012; active = well fitted activation curve with a large enough effect; inconclusive = small, poorly fitted or top-dose-only effect; inactive = flat fitted curve, though single readings scatter; cell line not stated here;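 further: potency means the concentration at half of the fitted maximal effect; % of control where 0% means no effect; nearly all actives have a fitted effect of over 65% in size; a mitochondrial uncoupler was the plate control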
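Stable cell line, 250 cells/well, 12 h attachment; compounds pinned at 5 concentrations, 24 h; CCCP control. Fixed with nuclear dye, primary antibodies 12 h at 10 degrees C, secondary plus cell stain; laser-scanning cytometer read.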
ClpP mod: qHTS Assay for Activators of ClpP. actives 1.9% (n = 340,000). purified B. subtilis ClpP, FRET peptide cleavage, 20 min. Potency, µM (highest dose often 57.5 µM), inactives show top-dose activity change, negative = active; active = well fitted falling curve with a large enough effect; inconclusive = small, poorly fitted or top-dose-only effect; inactive = no such curve, though single readings can be large or run the other way; further: potency means the concentration at half of the fitted maximal effect; the source files actives as falling curves though it sought activators and does not explain the sign; nearly all actives have a fitted effect of over 65% in size; many hits overshoot -100%
Target sequence (P80244 whole entry, looked up): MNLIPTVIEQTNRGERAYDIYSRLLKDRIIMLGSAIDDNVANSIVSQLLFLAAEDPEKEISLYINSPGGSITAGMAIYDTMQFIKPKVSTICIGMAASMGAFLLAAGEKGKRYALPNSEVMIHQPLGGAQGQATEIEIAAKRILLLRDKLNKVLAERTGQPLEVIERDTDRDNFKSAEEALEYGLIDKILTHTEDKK
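ClpP 10 microg/mL final, pH 8 Tris/KCl buffer with BSA, glycerol, Tween-20; compound pinned in; FRET-FV substrate; RT 20 min; Ex320/Em430; ΔFRET vs ADEP 5.8 microM, DMSO, no enzyme.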
Sfp inh: qHTS Assay for Inhibitors of Bacillus subtilis Sfp phosphopantetheinyl transferase (PPTase). actives 3.5% (n = 310,000). AID 1490, 2009. 4'-phosphopantetheinyl transferase ffp (Bacillus subtilis), Q9F4F7. Potency, µM, without a hit: max response, negative = inhibition, actives largely listed as inhibitors. Biochemical Sfp PPTase activity, qHTS; active means well fitted inhibition curve with a large enough effect; inconclusive means small, poorly fitted or top-dose-only effect, or another doubt; inactive means no such curve, though single readings can be large or run the other way;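 further: the enzyme is Sfp with the accession as filed and its product quenches rhodamine fluorescence; potency means the concentration at half of the fitted maximal effect; 0% = enzyme reaction without inhibitor and -100% = no enzyme wells; top concentration of the series not given in the record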
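Fluorescence-quenching assay: 15 nM Sfp-PPTase preincubated 15 min at room temperature with compound, then 5 uM rhodamine-CoA and 12.5 uM BHQ-2-labelled YbbR peptide added. Fluorescence (ex 525/em 598 nm) read at start and after 30 min; difference gives rate.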
* = called active by the depositor; ? = inconclusive; . = no result given; [ ] = another dose, or the depositor's remark.

Each structure is followed by: gsp antag	D2 ag	gsp agonist	Menin MLL FP FL	PINK1 modulator	ClpP mod	Sfp inh
1: Cc1cccc(OCC(=O)Nc2ccc(C(=O)c3ccc(C(=O)O)cc3)cc2)c1
→ -29%	-1.0	8%[15.4 µM]	0.0	-0.1%	.	21%
2: O=C1NC(=S)S/C1=C\c1ccc(SCc2ccccc2)o1
→ -15%	-1.9	3%[15.4 µM]	?	?	-1.1%	?
3: CN(CC(=O)Nc1ccccc1Cl)C(=O)COC(=O)/C=C/c1ccc(C(F)(F)F)cc1
→ 14%	-5.1	23%	.	-0.6%	1.1%	3%
4: NS(=O)(=O)c1cc(Br)c2c(c1)S(=O)(=O)NCN2
→ .	-3.8	?	.	0.4%	-0.9%	.
5: Brc1ccc(-c2nnc3sc(CN4CCN(c5ccccc5)CC4)cn23)cc1
→ 6%	2.2	-23%	2.2	22%[38.3 µM]	-0.4%	16%
6: CCCCn1nnnc1SCC(=O)Nc1sc2c(c1C#N)CCCC2
→ ?	-4.2	-32%	2.4	4.5%	-2.5%	11%
7: CC(=O)N1c2ccc(S(=O)(=O)N3CCC(C(=O)N4CCCCC4)CC3)cc2CC1C (centres undefined)
→ -7%	-0.6	-9%	1.6	2.5%	-0.2%	12%
8: COc1ccc(C2c3cc(OC)c(OC)cc3CCN2C(=O)c2cccc([N+](=O)[O-])c2)cc1OC (centres undefined)
→ -8%	-0.7	-17%	1.2	6.4%	3.9%	-10%
9: CSCCC(Nc1ncnc2ccc(Br)cc12)C(=O)O (centres undefined)
→ 51%[activator]	-2.0	?	2.9	-2.8%[38.3 µM]	-0.7%	7%
10: COc1ccccc1NC(=O)C(C)OC(=O)C1CCN(S(=O)(=O)c2ccc(C)c(C)c2)CC1 (centres undefined)
→ -27%	13	-1%	.	-1.6%	-3.5%	.
11: C/C=C/C(=O)Nc1cccc(C(F)(F)F)c1
→ 9%	-2.1	3%	1.1	0.0%	1.2%	20%
12: C=CCNC(=O)C1CC(=O)N(c2ccc(OCC(=O)Nc3c(C)cccc3C)cc2)C1 (centres undefined)
→ -6%	1.8	-6%[15.4 µM]	-2.6	-0.5%	.	26%
13: Cn1cc(C(=O)c2ccc(Cl)cc2Cl)cc1C(=O)N/N=C(\N)COc1ccc(Cl)cc1
→ ?	-1.0	6%[15.4 µM]	1.6	5.6%	.	19%
14: O=C(O)c1cnccn1
→ 4%	-2.5	.	2.7	-0.4%	-1.7%	?
15: Cc1c(O)ccoc1=O
→ 8%	9.9	.	-5.1	0.4%	2.0%	-20%
16: CCc1noc(C)c1C(=O)Nc1nc(-c2cc(C)ccc2C)c(C)s1
→ 7%	1.3	2%	1.2	-0.7%	-13%	8%
17: Cc1nc(SCC(=O)N(C)C2CCS(=O)(=O)C2)c2ccccc2n1 (centres undefined)
→ 10%	2.5	-5%	.	-0.9%	-4.8%	.
18: COc1ccccc1NOC(=O)CCOc1ccccc1
→ -25%	3.5	1%	.	2.6%	.	.
19: CN1C=CC=C/C1=C1\SC(=S)N(N)C1=O
→ -6%	-2.8	7%[15.4 µM]	7.2	-1.0%	0.3%	-64%
20: O=C(Cn1cnc2c(OCc3ccccc3)ncnc21)NCCCN1CCCC1=O
→ 11%	-2.5	.	.	-0.7%	0.1%	.
21: Cc1onc(-c2ccccc2Cl)c1C(=O)Nc1ncn[nH]1
→ 2%	-0.8	-9%	2.9	6.5%	-1.3%	9%
22: Cn1cccc1C(=O)N1CCC2(CCCN(Cc3ccc(C#N)cc3)C2)CC1
→ .	.	.	13	1.3%	.	2%
23: CCOC(=O)c1ccc(NC(=O)CSc2ncccn2)cc1
→ 5%	0.7	-12%	-0.8	-1.4%	0.7%	-11%
24: O=C(O)c1ccc(-c2cccc(Cl)c2)o1
→ -27%	-2.1	-10%	.	-3.3%[38.3 µM]	?	.
25: Cc1nc2sc(C(=O)c3ccccc3)c(N)c2c2c1CCCC2
→ -25%	2.6	-19%	-1.7	1.3%	-2.4%	?
26: CCCCNC(=O)CCc1c(C)nc2nc(-c3cc(OC)cc(OC)c3)nn2c1C
→ 7%	-0.5	-4%	2.2	-0.9%	-0.2%	-20%
27: CC(C)N1CCc2c(sc(NC(=O)c3ccc(C(=O)c4ccccc4)cc3)c2C(N)=O)C1
→ -9%	-3.8	-3%[15.4 µM]	.	-1.2%	-3.2%	-13%
28: Cc1ccc(C)c(S(=O)(=O)N2CCCCC2CCNC(=O)C(=O)NC2CC2)c1 (centres undefined)
→ 2%	-4.3	1%[15.4 µM]	.	-0.9%	-0.8%	.
29: CCOc1ccccc1C(=O)NC1CCN(Cc2nnnn2C2CCCC2)CC1
→ -2%	0.1	1%	0.8	4.6%[38.3 µM]	-1.4%	10%
30: O=C(Nc1ccc(N2CCN(C(=O)c3ccccc3)CC2)cc1)c1ccc2c(c1)OCO2
→ ?	1.1	25%	-1.6	-5.3%	1.0%	-11%
31: COc1ccc(C(=O)NNC(=O)C(C)NC(=O)c2ccccc2NC(=O)c2ccco2)cc1 (centres undefined)
→ -2%	-6.4	2%[15.4 µM]	7.8	2.7%	.	-13%
32: Cc1cccc(NC(=O)C2CC(=O)N/C(=N/N=C/c3ccco3)S2)c1 (centres undefined)
→ 7%	-8.1	-27%	3.7	6.1%	-2.1%	10%
33: CC1=C(C(=O)N2CCOCC2)CC(CC(=O)NC2CCCC2)C(=O)N1Cc1ccccc1 (centres undefined)
→ .	-3.2	-38%[inhibitor]	.	2.6%	-0.7%	.
34: Cc1cc(C)c(NC(=O)C2CC(=O)N(C(C)C)C2)c(C)c1 (centres undefined)
→ 7%	5.4	1%	-2.3	0.8%	0.3%	4%
35: Cn1ccc2c(-c3cccnc3)cc3c(c21)C1CCC3O1 (centres undefined)
→ .	-4.8	.	.	2.3%	-11%	.
36: COC(=O)c1c(NC(=S)Nc2ccccc2Cl)sc(C)c1C
→ -1%	0.6	?	2.8	.	-12%	?
37: CC(C)(C)S(=O)N1Cc2cc(=O)n(Cc3ccccc3)c(CCO)c2[C@@H]1CCO (some centres undefined)
→ 5%	0.1	.	.	-1.2%	-14%	.
38: CCCc1ccc(NC(C)C(=O)Nc2ccc(S(=O)(=O)N3CCOCC3)cc2)cc1 (centres undefined)
→ -7%	-3.0	-10%	.	-1.6%	1.0%	.
39: NC(=O)CSc1nc2ccccc2c(=O)n1Cc1ccco1
→ 2%	-3.0	14%	-0.9	-1.3%	1.1%	15%
40: CCC(C)N(C(=O)COC(=O)C1C(C(=O)OC)=C(C)NC(C)=C1C(=O)OC)C1CCS(=O)(=O)C1 (centres undefined)
→ 6%	5.7	-25%	0.8	3.0%	.	9%
41: Cc1cccc(C)c1OCc1cc(C(=O)NCC2COCCO2)no1 (centres undefined)
→ -21%	-1.6	?	.	4.0%	-14%	12%
42: Cn1c(=S)c2[nH]c(SCC3CCCO3)nc2n(C)c1=O (centres undefined)
→ -9%	-0.9	?	.	0.4%	-8.8%	.
43: COc1ccc(CN2CCNC(=O)C2CC(=O)NCCc2nc(C)c3c(n2)CCC3)cc1C (centres undefined)
→ -6%	2.7	-22%	-3.3	-1.8%	-0.8%	8%
44: CC1=C(C(=O)OCC(C)C)C23C(=O)c4ccccc4C2(O1)OC(N)=C3C#N (centres undefined)
→ -20%	2.3	4%	1.2	-0.3%[38.3 µM]	0.7%	10%
45: COc1ccc(OCC(=O)NS(=O)(=O)c2ccc(Cl)cc2)cc1
→ -6%	-2.9	15%	5.1	2.1%	.	23%
46: COc1ccc(C(CNC(=O)CCNS(=O)(=O)c2ccc(C)cc2)N2CCOCC2)cc1 (centres undefined)
→ 9%	-2.0	-15%[15.4 µM]	.	1.1%	.	.
47: Cc1ccc(C(=O)NCc2ccccn2)cc1S(=O)(=O)N1CCOCC1
→ 5%	6.4	19%	.	-0.2%	-0.4%	.
48: COc1ccc(NC(=O)C2CCCN2S(=O)(=O)c2cccc3nsnc23)c(OC)c1 (centres undefined)
→ 20%	-3.2	?	.	0.5%	1.9%	6%
49: CN1CCN(C(=S)NC(=O)/C=C/c2ccccc2)CC1
→ 2%	-2.6	6%	3.7	-0.9%[38.3 µM]	1.0%	1%
50: O=C1/C(=C2\C(=O)N(Cc3ccc(F)cc3)c3ccccc32)SC(=S)N1CCS(=O)(=O)O
→ -1%	?	-51%[inhibitor]	0.9	1.3%	1.4%	-11%
51: CC(C)(C)NC(=O)Cn1c(-c2nonc2N)nc2ccccc21
→ -1%	-2.9	2%	0.8	1.6%	-3.5%	4%
52: Cc1cccn2c(CN(C)C3CCOC3)c(C(=O)N3CCCCC3)nc12 (centres undefined)
→ 2%	-4.4	-49%[inhibitor]	0.2	-0.9%	.	2%
53: O=C(NCc1ccccc1Cl)c1ccc2sc([C@H]3C[C@H](O)[C@@H](CO)O3)nc2c1
→ .	-6.6	.	.	2.4%	-1.8%	.

An excerpt of these results, bar-delimited:
item | smiles | gsp antag | D2 ag | gsp agonist | Menin MLL FP FL | PINK1 modulator | ClpP mod | Sfp inh
45 | COc1ccc(OCC(=O)NS(=O)(=O)c2ccc(Cl)cc2)cc1 | -6% | -2.9 | 15% | 5.1 | 2.1% | . | 23%
46 | COc1ccc(C(CNC(=O)CCNS(=O)(=O)c2ccc(C)cc2)N2CCOCC2)cc1 (centres undefined) | 9% | -2.0 | -15%[15.4 µM] | . | 1.1% | . | .

Screening data as filed in PubChem.

The order is random; any-hit rate near 5.1%.
